Source: PubChem (National Center for Advancing Translational Sciences (NCATS))
VDR inhibitor – Inhibitors of the vitamin D receptor (VDR): qHTS | actives 0.93% (n = 400,000) | AID 504847, 2011 | VDR-SRC2-3 peptide fluorescence polarization, 2 h | Potency, µM, inactives show max response, negative = inhibition, usual class: inhibitors | Vitamin D3 receptor (Homo sapiens), P11473; active means well fitted inhibition curve with a large enough effect; inconclusive means small, poorly fitted or top-dose-only effect, or another doubt; inactive means no such curve, though single readings can be large or run the other way; further: series mostly up to about 120 µM
Target sequence (P11473 whole entry, looked up): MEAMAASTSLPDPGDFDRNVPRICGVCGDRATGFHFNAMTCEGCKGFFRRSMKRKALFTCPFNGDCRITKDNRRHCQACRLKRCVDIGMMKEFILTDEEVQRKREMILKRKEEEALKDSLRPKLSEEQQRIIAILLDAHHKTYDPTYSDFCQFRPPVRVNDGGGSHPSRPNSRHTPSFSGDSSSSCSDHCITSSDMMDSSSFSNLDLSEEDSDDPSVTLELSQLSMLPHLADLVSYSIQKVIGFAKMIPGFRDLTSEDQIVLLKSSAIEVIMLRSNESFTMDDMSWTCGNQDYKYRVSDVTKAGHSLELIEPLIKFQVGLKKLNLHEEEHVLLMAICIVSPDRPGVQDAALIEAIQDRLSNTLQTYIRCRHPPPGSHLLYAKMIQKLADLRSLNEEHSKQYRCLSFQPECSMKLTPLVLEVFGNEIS
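Compounds are added to VDR with labelled SRC2-3 coactivator peptide and held 2 h at room temperature. Inhibition of the VDR–peptide interaction is then read as a change in fluorescence polarization.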
An asterisk follows results filed as active; ? = inconclusive. On the % scale 0 is the no-effect control and ±100 the full control effect; potency means the concentration at half of the fitted maximal effect.

SMILES | VDR inhibitor
CN(C)C(CNC(=O)c1coc2ccccc2c1=O)c1ccccc1 (stereo unspecified) | -14%
CCN(CC)S(=O)(=O)c1ccc(/C=C/C(=O)OCC(=O)NC(=O)C2COc3ccccc3O2)cc1 (stereo unspecified) | 3%
C=CCOc1ccc(CNCc2cccnc2)cc1OCC | 7%
Cc1ccc(N(C)S(=O)(=O)c2ccc3[nH]cc(C(=O)O)c(=O)c3c2)cc1C | 17%
CN(CC(=O)Nc1ccc(Cl)c(C(F)(F)F)c1)C(=O)C1CCN(C(=O)c2ccc(Cl)cc2)CC1 | -5%
Cc1ccccc1-c1nc(CS(=O)(=O)CC(=O)Nc2cc(F)ccc2F)c(C)o1 | -27%
CC(=O)c1ccc(N2CCN(C(=O)C3CCN(S(=O)(=O)c4c(C)noc4/C=C/c4ccccc4F)CC3)CC2)cc1 | 1%
COc1ccc(-c2cc(C(F)(F)F)nc(SCC(=O)N3CCC(C)CC3)n2)cc1 | -23%
Cc1cccc(N(Cc2ccccc2)C(=O)CN2C(=O)NC3(CCCC3)C2=O)c1 | -8%
COCCn1c(SCC(=O)NCc2ccco2)nnc1-c1c[nH]c2ccccc12 | 1%
Cc1c(Cl)cccc1NC(=O)c1cc(C2CC2)on1 | -1%
Cc1ccc(NCCC(=O)c2cccs2)cc1Cl | -11%

Structural class: the compounds so far containing an aryl thioether with sulfur outside any ring.
SMILES | VDR inhibitor
COc1ccc(-c2cc(C(F)(F)F)nc(SCC(=O)N3CCC(C)CC3)n2)cc1 | -23%
COCCn1c(SCC(=O)NCc2ccco2)nnc1-c1c[nH]c2ccccc12 | 1%

The results go on:
SMILES | VDR inhibitor
COc1ccc(C(=O)Nc2ccc(Cl)c(S(=O)(=O)Nc3ccccc3OC)c2)cc1 | -12%
COc1ccc2c(c1)nc(SCC(C)O)n2C (stereo unspecified) | -10%
CC1CCCN(c2ccc(/C=C(\C#N)c3nn(-c4ccccc4)c(N)c3C#N)cc2[N+](=O)[O-])C1 (stereo unspecified) | -13%
O=C(COc1cc2oc(=O)cc(-c3ccccc3)c2cc1Cl)NCc1ccccn1 | 7%
Cc1ccc(-c2ccc(/C=N/n3cnnc3)o2)cc1 | -4%
O=C(COC(=O)C1(c2ccc(Cl)cc2)CCCC1)N1CCc2ccccc21 | -16%
O=C1c2ccccc2NC(c2cccc([N+](=O)[O-])c2)N1CCc1ccccc1 (stereo unspecified) | 19%
Cc1ccc(C(=O)OCC(=O)c2c(N)n(C)c(=O)n(C)c2=O)cc1S(=O)(=O)N1CCCCC1 | -14%
O=C(CSc1nc(NS(=O)(=O)c2ccccc2)cc(=O)[nH]1)Nc1ccc(F)cc1 | 1%
O=C1CN(C(=O)COC(=O)CCC(=O)c2ccc(F)cc2)c2ccccc2N1 | 10%
O=C(Cn1cnc2cc([N+](=O)[O-])ccc2c1=O)NCc1ccc(Cl)cc1 | -18%
COc1ccc(-c2noc(CN(C(=O)c3ccoc3C)C(C)C)n2)cc1 | -5%
O=C(O)CSc1nnc(NC(=O)CN2CCOCC2)s1 | 9%
CC(C)CC1(C)CNC(=O)NC1 | -16%
CCCNc1nc(C)cc(-c2cc(C(=O)NC3CCCC3)on2)n1 | 7%
Cc1ccc(S(=O)(=O)NC2CCCC(C(=O)O)C2)cc1 (stereo unspecified) | 11%
CCN(CC)c1ccc(/C=N/Nc2cccc(C)c2)c(O)c1 | ?
CC(OC(=O)c1ccccc1NCCO)C(=O)NC1CCCCC1C (stereo unspecified) | 2%
O=C(CSc1nnc(-c2ccccc2)o1)c1cccc([N+](=O)[O-])c1 | -3%
COc1ccc(/C(O)=C2/C(=O)C(=O)N(Cc3cccnc3)C2c2ccncc2)cc1F (stereo unspecified) | -4%
CN(C)c1nc(N(C)C)n(C(=O)c2ccc(F)cc2)n1 | 9%
Cc1ccc(S(=O)(=O)N(C)C)cc1NC(=O)c1cncc(Br)c1 | -8%
O=C1CSc2ccc(S(=O)(=O)CCC(=O)NC3CCCCC3)cc2N1 | 17%
Cn1c(NCc2cccs2)nc2ccccc21 | 5%
CCc1cc2ccc(C)cc2nc1SCC(=O)Nc1c[nH]c(=O)[nH]c1=O | -21%
COc1cccc(Nc2nc3ccccc3n2C(C)C)c1 | 14%
COc1ccccc1C(=O)NNC(=O)C1CC=CCC1 (stereo unspecified) | 7%
CC(C)(C)c1nnc2sc(SCC(=O)c3ccc(Cl)cc3)nn2c1=O | -16%
CC(=O)c1ccccc1OCC(O)Cn1ccnc1 (stereo unspecified) | 7%
N#Cc1c(NCCN)nc(NCc2ccccc2)c2c1CCN(Cc1ccccc1)C2 | 12%
CCOC(=O)c1ccc(N2C(=O)c3n[nH]c(C)c3C2c2ccc(OCC)cc2)cc1 (stereo unspecified) | -8%
CCOC(=O)N1CCN(C(=O)c2cc3c(=O)n4ccccc4nc3s2)CC1 | 6%
O=[N+]([O-])c1ccc2nc(-c3ccccc3)oc2c1 | -5%
CN(CC(=O)Nc1ccc2c(c1)OCCO2)S(=O)(=O)c1ccc(Br)s1 | 10%
C[C@H](NC(=O)c1cc2cc(Cl)ccc2n1C)C(=O)N1CCC[C@H]1C(=O)O | -10%
O=S(=O)(NCC(c1ccco1)N1CCN(c2ccccc2)CC1)c1ccc(F)cc1 (stereo unspecified) | 12%

Structures shown so far that contain bromine (two):
SMILES | VDR inhibitor
Cc1ccc(S(=O)(=O)N(C)C)cc1NC(=O)c1cncc(Br)c1 | -8%
CN(CC(=O)Nc1ccc2c(c1)OCCO2)S(=O)(=O)c1ccc(Br)s1 | 10%

Other entries:
SMILES | VDR inhibitor
Cc1ccc(C(=S)N2CCCCCC2)cc1 | ?
Cc1cc(C)n2ncc(C(=O)O)c2n1 | -3%
O=c1[nH]cnc2sc3c(c12)CCCC3 | 3%
CC(C)c1ccc(OC(=O)c2cc(-c3ccc4c(c3)OCCO4)on2)cc1 | -6%
COc1ccc(CC(O)CC2c3c(cc4c(c3OC)OCO4)CCN2C)cc1 (stereo unspecified) | 2%
COc1ccc(N(Cc2ccccc2)N=O)cc1 | -14%
O=S(=O)(c1cnccc1N1CCN(CCO)CC1)N1CCCCC1 | -3%
O=C(C1=C(O)C(=O)N(Cc2ccco2)C1c1cccnc1)c1cc2ccccc2o1 (stereo unspecified) | ?
COc1ccc(NC(=O)Nc2ccc(OCc3ccccc3)cc2)cn1 | 22%
O=C(c1ccccc1)c1ccc2nc(-c3ccco3)c(-c3ccco3)nc2c1 | 45µM*
Cc1nn(S(=O)(=O)N2CCCCC2)c(C)c1Br | -7%
CN(CC(=O)Nc1ccccc1Cl)S(=O)(=O)c1ccc(C(=O)N2CCOCC2)s1 | 14%
CCOc1ccccc1NC(=O)CN1Cc2ccccc2C1=O | 6%
CC#CCCC(=O)N1C=Cc2ccccc2C1C#N (stereo unspecified) | -18%
COc1ccc(C(=O)C2CCN(C(=O)Nc3ccc(C)cc3)CC2)cc1 | -5%
CC(C)CNC(=O)C1CCN(Cc2ccc(OCc3ccccc3)cc2)CC1 | -13%
S=c1[nH]c2cnc(Cl)nc2[nH]1 | ?
COc1cc(/C=C/C(=O)c2cccc([N+](=O)[O-])c2)cc(OC)c1OC | ?
O=[N+]([O-])c1ccc(O)c(Nc2c([N+](=O)[O-])ccc3nonc23)c1 | -5%
Cc1cc(NC(=O)COn2nnc3ccc(S(C)(=O)=O)cc32)ccc1Br | 9%
COc1ccc(CN2C(=O)CN=C2Nc2cccc(C)c2C)cc1 | -4%
CC(=O)c1ccc(NS(=O)(=O)c2ccc([N+](=O)[O-])cc2)cc1 | 3%
C[C@H]1CN=C(N(C)C)N1CCc1ccc(F)cc1 | -15%
COc1ccc(S(=O)(=O)N2CCC(C(=O)NCCCc3ccccc3)CC2)cc1 | -5%
O=C(CCCc1nc(-c2ccco2)no1)Nc1ccccc1[N+](=O)[O-] | 9%
CCn1c(=O)n(CC)c2cc(N3CCCC3)c(NC(=O)c3cccc(Cl)c3)cc21 | -16%
CC(C)c1nc(SCC(=O)Nc2nc3c(s2)CCCC3)c2ccccc2n1 | -2%
Cn1c(=O)[nH]c(=O)c2c1nc(CN1CCN(c3ccccc3F)CC1)n2Cc1ccc(F)cc1 | -6%
COc1ccc(C(C)=O)cc1COC(=O)CNC(=O)c1ccc(Cl)cc1 | -19%
Cc1ccc(-c2nc(Nc3cccc(O)c3)c3ccccc3n2)cc1 | -2%
CN(C(=O)CSc1nnc(CN2CCCC2)n1Cc1ccccc1)c1ccccc1 | 10%
O=C(COC(=O)COc1ccccc1F)Nc1ccc(Cl)cn1 | 17%
COC(=O)N1CCCc2cc(C)ccc21 | -21%
COc1cccc(C2CC(c3ccccc3)Nc3ncnn32)c1 (stereo unspecified) | 9%
Cc1cc(=O)n2nc(N3CCC(C(=O)Nc4cccc(Cl)c4C)CC3)sc2n1 | 20%
O=C(CN(C(=O)CNC(=O)c1cccs1)c1ccccc1F)NC1CCCC1 | -1%
CCOc1ccc(-c2cn3ccccc3n2)cc1[N+](=O)[O-] | -7%
Cc1ccc(S(=O)(=O)N2CCCCC2)cc1C(=O)N(CCc1ccccc1)Cc1ccccc1 | -12%
CCCCN(CCCC)CCNC(=O)c1cc(-c2cccnc2)nc2ccc(S(=O)(=O)N3CCC(C)CC3)cc12 | 19%
O=C(O)c1ccc(NC(=O)c2cn(-c3ccccc3)nc2-c2ccc(F)cc2)cc1 | -1%
Cc1c(N=Cc2c(O)n(Cc3ccco3)c(=O)c3ccccc23)c(=O)n(-c2ccccc2)n1C | -8%
CN(C)CCN(Cc1ccccc1)S(=O)(=O)c1ccc(-c2ccc(=O)[nH]n2)s1 | -24%
CC(=O)Nc1ccc(C(=O)CSc2nnc(Cn3nnc4ccccc43)n2C)cc1 | -29%
Cc1ccc(NC(=O)Nc2ccc(Cl)cc2)c(Br)c1 | 5%
Cc1ccc(CNC(=O)c2cc(-c3ccccc3)nn2CC2CC(c3cccc([N+](=O)[O-])c3)=NO2)cc1 (stereo unspecified) | 3%
Cc1ccc(-n2nnnc2CNC(=O)C2CC(=O)N(c3ccc(F)cc3)C2)cc1C (stereo unspecified) | -3%
O=C(Nc1ccc(N2CCOCC2)cc1)c1cccc2c(Br)cccc12 | -1%
Clc1ccc(-c2nn3c(-c4ccccc4)nnc3s2)cc1 | -10%

By substructure: those above with a CF3 group.
SMILES | VDR inhibitor
CN(CC(=O)Nc1ccc(Cl)c(C(F)(F)F)c1)C(=O)C1CCN(C(=O)c2ccc(Cl)cc2)CC1 | -5%
COc1ccc(-c2cc(C(F)(F)F)nc(SCC(=O)N3CCC(C)CC3)n2)cc1 | -23%

New compounds follow.
SMILES | VDR inhibitor
OCCNCC12CC3CC(CC(C3)C1)C2 | 11%
CC(C)c1ccc(O)c(N)c1 | -6%
Cc1nn(S(=O)(=O)c2ccc(Br)cc2)c(C)c1S(=O)(=O)N1CCOCC1 | -1%
COc1ccc(C(=O)NC(Oc2ccccc2)C(Cl)(Cl)Cl)cc1 (stereo unspecified) | 2%
CCOC(=O)CC(=O)CSc1nc(-c2cccnc2)ccc1C#N | 5%
COc1ccc2[nH]c(=O)c(CN(CC3CCCO3)S(=O)(=O)c3ccccc3F)cc2c1 (stereo unspecified) | 3%
COc1ccc(NC(=O)Cn2nnc(-c3ccccc3NS(=O)(=O)c3ccccc3)n2)cc1 | 2%
Cc1occc1C(=O)N1CCN(S(=O)(=O)c2ccc(F)cc2)CC1 | 0%
O=C(CS(=O)c1cccc(C(F)(F)F)c1)Nc1ccc(Cl)cc1Cl (stereo unspecified) | -1%
Cc1ccc(S(=O)(=O)N(CC(=O)N/N=C/c2ccco2)c2cc(Cl)cc(Cl)c2)cc1 | -15%
Cc1nc2ccccn2c1C(=O)NNS(=O)(=O)c1ccc(C(C)(C)C)cc1 | -13%
CC(C(=O)Nc1ccc(S(=O)(=O)N2CCCC2)cc1)N1CCN(c2ccccc2O)CC1 (stereo unspecified) | -11%

Three entries already listed, ordered by their value in VDR inhibitor, low to high.
SMILES | VDR inhibitor
Cc1occc1C(=O)N1CCN(S(=O)(=O)c2ccc(F)cc2)CC1 | 0%
COc1ccc(C(=O)NC(Oc2ccccc2)C(Cl)(Cl)Cl)cc1 (stereo unspecified) | 2%
OCCNCC12CC3CC(CC(C3)C1)C2 | 11%

Continuation.
SMILES | VDR inhibitor
CCOC(=O)N1CCN(C(c2ccc(C)cc2)c2sc3nc(C)nn3c2O)CC1 (stereo unspecified) | -18%
O=c1c(Cl)c(N2CCN(c3ccc(F)cc3)CC2)cnn1-c1nc2ccccc2s1 | ?
COc1ccc(CN2C(=O)c3ccccc3C2OC)cc1 (stereo unspecified) | -20%
Cc1noc(C)c1CCC(=O)N1CCCC(CO)(Cc2ccccc2)C1 (stereo unspecified) | -5%
Cc1ccccc1NC(=S)N(CCN1CCCCCC1)Cc1cccs1 | 7%
CN(C(=O)c1cccc(NC(=O)Cc2ccc(NC(=O)C3CCN(C(=O)C4CCCCC4)CC3)cc2)c1)C1CCCC1 | -9%
O=C1CCCC2=C1C(c1ccccc1)n1c(s/c(=C/c3cccc(F)c3)c1=O)=N2 (stereo unspecified) | -6%
Cc1ccc(F)c([C@H]2[C@H]3C=CC[C@@H](C)[C@@H]3C(=O)N2Cc2ccccc2)c1 | -14%
CCOC(=O)c1sc(NC(=O)CSc2n[nH]c(-c3ccccc3)n2)c(C#N)c1C | -22%
CCCNC(=O)C1CC2Cn3c(nc4ccccc43)C2N1C (stereo unspecified) | -6%
COc1ccc(/C=N/Nc2nc3ccccc3o2)cc1O | -9%
C/C=C\C=C\C(=O)N1CC2(CC(c3cccc(NC(=O)CC)c3)=NO2)C[C@H]1C(N)=O (stereo partly specified) | ?
O=C(Nc1cccc(Oc2ccc(C(=O)O)c(C(=O)O)c2)c1)c1ccc(-c2ccccc2)cc1 | 2%

These rows are one share of the data, so the mix of outcomes need not match the whole.
